Vaccinia inh = blocks a specific stage of Vaccinia orthopoxvirus infection, primary screen, cell-based, single point. Vaccinia-infected cells, mCherry/Venus stage reporter fluorescence; hits give low values; some inactives read as strong as hits. activity change (mCherry), % (no concentration beside the values). actives 0.01% (n = 89,000);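 active means mCherry past -33% and 40 or more points under the early reporter, replicates agreeing; inconclusive means past -33% without that gap or agreement; tested in A549 cells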;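 further: scaled between vehicle wells and reference inhibitor wells; 23 nL library stock went into each well; one replicate is shown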
Vaccinia inh Venus = also measured in Vaccinia inh; calls as there; activity change (Venus), %; measured here: Venus reporter, other viral stage;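 negative = less Venus signal; first of two replicates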
Active calls of the source: *; ? = inconclusive; nt = not tested or not shown.

SMILES | Vaccinia inh | Vaccinia inh Venus
COCC#Cc1ccc([C@H]2[C@@H](CO)N3C(=O)CN(C(=O)c4cccnc4)C[C@H]23)cc1 | 12 | 12
CO[C@H]1CN(C)C(=O)c2ccc(NC(C)=O)cc2OC[C@H](C)N(C(=O)C2CC2)C[C@H]1C | -2 | -7
O=C(C[C@H]1CC[C@H]2[C@@H](COC[C@@H](O)CN2Cc2cccc(Cl)c2)O1)N1CCOCC1 | -5 | -4
C[C@@H]1CN([C@@H](C)CO)C(=O)Cc2cc(NC(=O)Nc3ccccc3)ccc2O[C@@H]1CN(C)C(=O)Nc1ccccc1 | 8 | 6
CCC(=O)N1[C@H](CO)[C@H](c2ccccc2)C12CN(C(=O)Cc1ccccc1)C2 | -4 | 4
O=S(=O)(N[C@@H]1CC[C@@H](CCn2cc(-c3cccnc3)nn2)O[C@H]1CO)c1ccc(Cl)cc1 | 8 | 1
COc1ccc(NC(=O)Nc2ccc3c(c2)C(=O)N([C@H](C)CO)C[C@H](C)[C@@H](CN(C)Cc2ccc(C(F)(F)F)cc2)OCCCC[C@H](C)O3)cc1 | -16 | -14
O=C(c1cccc(F)c1)N1CC[C@@H]2[C@H](CO)Nc3ccc(C#Cc4ccc(F)cc4)cc3[C@@H]21 | -20 | -13
Cc1ccc(S(=O)(=O)N(C)C[C@@H]2OCCCC[C@H](C)Oc3ccc(N(C)C)cc3C(=O)N([C@@H](C)CO)C[C@H]2C)cc1 | -15 | -6
O=C(NC1CCC1)[C@H]1[C@H](CO)[C@H]2Cn3c(ccc(-c4ccc(F)cc4)c3=O)[C@@H]1N2Cc1cocn1 | 20 | 7
COCC(=O)Nc1ccc2c(c1)C(=O)N(C)C[C@H](OC)[C@@H](C)CN(CCC(F)(F)F)[C@@H](C)CO2 | 6 | -2
CO[C@@H]1CN(C)C(=O)c2cc(NC(=O)c3cc(C)on3)ccc2OC[C@@H](C)N(C(=O)C2CC2)C[C@@H]1C | -5 | 2
C[C@@H]1CN([C@@H](C)CO)C(=O)c2cc(C#C[C@@H](C)O)cnc2O[C@@H]1CN(C)C(=O)c1ccccc1F | 7 | -2
Cc1noc(C)c1NC(=O)N(C)C[C@@H]1Oc2c(NS(=O)(=O)c3cccs3)cccc2C(=O)N([C@H](C)CO)C[C@@H]1C | 12 | 10
C[C@H]1CN([C@@H](C)CO)C(=O)c2cc(NS(=O)(=O)c3cn(C)cn3)ccc2O[C@H]1CN(C)Cc1ccc(Cl)c(Cl)c1 | 3 | -6
CCC(=O)N1CC2(C1)CN(Cc1ccc3c(c1)OCO3)[C@@H](CO)c1c2c2ccc(OC)cc2n1C | 11 | 7
C[C@H](NC(=O)[C@@H]1[C@@H](CO)[C@@H]2Cn3c(ccc(C4=CCCCC4)c3=O)[C@H]1N2)c1ccccc1 | 11 | 8
C[C@@H]1CN([C@@H](C)CO)C(=O)c2cc(NS(=O)(=O)c3ccc(F)cc3)ccc2O[C@@H](C)CCCCO[C@@H]1CN(C)C(=O)Nc1ccc(C(F)(F)F)cc1 | 9 | 8
C[C@@H]1CN([C@H](C)CO)C(=O)Cc2cc(NC(=O)NC3CCCCC3)ccc2O[C@H]1CN(C)S(=O)(=O)c1ccccc1 | 2 | 12
O=C(C[C@H]1C=C[C@H](NC(=O)C2CC2)[C@@H](CO)O1)NCc1ccccc1Cl | 1 | -1

Seven compounds picked at random from the list so far, as already listed:
SMILES | Vaccinia inh | Vaccinia inh Venus
C[C@H]1CN([C@@H](C)CO)C(=O)c2cc(NS(=O)(=O)c3cn(C)cn3)ccc2O[C@H]1CN(C)Cc1ccc(Cl)c(Cl)c1 | 3 | -6
C[C@@H]1CN([C@@H](C)CO)C(=O)c2cc(NS(=O)(=O)c3ccc(F)cc3)ccc2O[C@@H](C)CCCCO[C@@H]1CN(C)C(=O)Nc1ccc(C(F)(F)F)cc1 | 9 | 8
Cc1noc(C)c1NC(=O)N(C)C[C@@H]1Oc2c(NS(=O)(=O)c3cccs3)cccc2C(=O)N([C@H](C)CO)C[C@@H]1C | 12 | 10
C[C@@H]1CN([C@@H](C)CO)C(=O)c2cc(C#C[C@@H](C)O)cnc2O[C@@H]1CN(C)C(=O)c1ccccc1F | 7 | -2
C[C@H](NC(=O)[C@@H]1[C@@H](CO)[C@@H]2Cn3c(ccc(C4=CCCCC4)c3=O)[C@H]1N2)c1ccccc1 | 11 | 8
C[C@@H]1CN([C@H](C)CO)C(=O)Cc2cc(NC(=O)NC3CCCCC3)ccc2O[C@H]1CN(C)S(=O)(=O)c1ccccc1 | 2 | 12
O=C(C[C@H]1C=C[C@H](NC(=O)C2CC2)[C@@H](CO)O1)NCc1ccccc1Cl | 1 | -1

Next results
SMILES | Vaccinia inh | Vaccinia inh Venus
COc1ccc2c3c(n(C)c2c1)[C@H](CO)N(Cc1cccnc1)CC31CN(C(=O)c2cccnc2)C1 | 13 | 10
Cc1ccc(S(=O)(=O)Nc2ccc3c(c2)C(=O)N([C@@H](C)CO)C[C@H](C)[C@@H](CN(C)Cc2ccc(C(=O)Nc4ccccc4N)cc2)O3)cc1 | 52 | 23
C[C@@H]1CN([C@@H](C)CO)C(=O)c2cccc(NC(=O)Nc3ccccc3)c2O[C@@H]1CN(C)S(=O)(=O)c1ccccc1 | -34 | -30
C[C@@H]1CN([C@H](C)CO)C(=O)Cc2cc(NS(=O)(=O)c3ccc(F)cc3)ccc2O[C@H]1CN(C)Cc1ccc(C(F)(F)F)cc1 | -8 | -2
C[C@@H]1CCCCO[C@@H](CN(C)C(=O)Cc2ccccc2)[C@@H](C)CN([C@@H](C)CO)C(=O)c2cc(NC(=O)Nc3ccc(F)cc3)ccc2O1 | 2 | -3
C[C@@H]1CCCCO[C@@H](CN(C)S(=O)(=O)c2cn(C)cn2)[C@@H](C)CN([C@H](C)CO)C(=O)c2cc(NS(=O)(=O)c3ccc(Cl)cc3)ccc2O1 | 14 | 12
C[C@H]1CN([C@@H](C)CO)C(=O)c2cc(-c3ccc(F)cc3)cnc2O[C@@H]1CN(C)C(=O)Cc1ccccc1 | -15 | -18
C[C@H]1CN([C@@H](C)CO)C(=O)Cc2cc(NC(=O)CCN3CCOCC3)ccc2O[C@H]1CN(C)Cc1ccncc1 | -1 | -6
C[C@@H]1CN([C@H](C)CO)S(=O)(=O)c2ccc(-c3ccccc3)cc2O[C@H]1CN(C)S(C)(=O)=O | -24 | -22
CN1C(=O)c2cc(NC(=O)Nc3ccccc3)ccc2OC[C@@H]2O[C@H](CC(=O)NC3CCC3)CC[C@@H]21 | -19 | 1
COc1ccc(S(=O)(=O)Nc2ccc3c(c2)C(=O)N([C@H](C)CO)C[C@H](C)[C@H](CN(C)C(=O)CCCN(C)C)OCCCC[C@H](C)O3)cc1 | 73 | 143
O=C(Cc1ccccc1)N1CC2(C1)[C@@H](c1ccccc1)[C@@H](CO)N2Cc1cccc(F)c1 | -21 | -8
C[C@H]1CN([C@@H](C)CO)C(=O)c2cc(NC(=O)Nc3cccc4ccccc34)ccc2O[C@H]1CN(C)S(=O)(=O)c1ccccc1 | -9 | -10
COc1ccc2c3c(n(C)c2c1)[C@H](CO)NCC31CN(Cc2ccc(F)cc2)C1 | ? | nt
COCC(=O)N(C)C[C@@H]1Oc2cc(-c3ccc(OC)cc3)ccc2S(=O)(=O)N([C@@H](C)CO)C[C@@H]1C | 1 | -3
Cc1cccc(-c2ccc([C@@H]3[C@@H](CO)N4CCCCN(C(=O)c5cccnc5)C[C@@H]34)cc2)c1 | -12 | -8
COC(=O)C[C@H]1CC[C@H]2[C@H](COc3ccc(NC(=O)c4ccccc4)cc3C(=O)N2C)O1 | 2 | 3
CC(C)C#Cc1ccc([C@H]2[C@@H](CO)N3C(=O)CN(C(=O)C4CCCCC4)C[C@@H]23)cc1 | -9 | -22
OC[C@H]1[C@@H](c2ccc(-c3cccc(F)c3)cc2)[C@H]2CN(Cc3cncnc3)CCCCN21 | 6 | 0
C[C@@H]1CN([C@H](C)CO)C(=O)c2cc(/C=C/c3ccccc3)cnc2O[C@H]1CN(C)Cc1ccc2c(c1)OCO2 | -32 | -19

Going on with the list.
Values in the order – Vaccinia inh | Vaccinia inh Venus
C=CCN1C(=O)[C@]2(O[C@H](CCO)[C@@H]([Si](C)(C)c3ccc(OC)cc3)[C@@H]2C)c2cc(NC(=O)[C@H](C)O)ccc21
  -7 | -5
O=C1CNC[C@H]2[C@H](c3ccc(Br)cc3)[C@H](CO)N12
  14 | 10
C[C@H](CO)N1C[C@H](C)[C@@H](CN(C)CC2CC2)OCCCC[C@H](C)Oc2ccc(NC(=O)CCC(F)(F)F)cc2C1=O
  7 | 0
CO[C@H]1CN(C)C(=O)c2ccc(NC(=O)NC(C)C)cc2OC[C@@H](C)N(Cc2ccc(-c3ccccn3)cc2)C[C@H]1C
  1 | 0
CC(C)C#Cc1ccc2c(c1)O[C@@H](CN(C)C(=O)C1CC1)[C@@H](C)CN([C@@H](C)CO)S2(=O)=O
  -3 | -8
CO[C@@H]1CN(C)C(=O)c2ccc(NC(=O)c3ccccc3)cc2OC[C@@H](C)N(C)C[C@@H]1C
  -8 | -10
C[C@@H]1CN([C@H](C)CO)S(=O)(=O)c2ccc(C#Cc3ccncc3)cc2O[C@@H]1CN(C)S(=O)(=O)c1ccc(F)cc1
  -30 | -16
Cc1noc(C)c1NC(=O)Nc1ccc2c(c1)C(=O)N([C@H](C)CO)C[C@H](C)[C@@H](CN(C)C(=O)Nc1ccc(F)cc1)OCCCC[C@H](C)O2
  22 | 8
C[C@@H]1CN([C@H](C)CO)C(=O)Cc2cc(NC(=O)CCN3CCOCC3)ccc2O[C@H]1CN(C)S(=O)(=O)c1ccc(Cl)cc1
  -1 | -5
CN(C)C(=O)C[C@@H]1CC[C@@H](NC(=O)Nc2cccc(F)c2)[C@H](CO)O1
  2 | 8
C[C@@H]1CN([C@@H](C)CO)C(=O)c2cc(NC(=O)Cc3ccccc3)ccc2O[C@@H](C)CCCCO[C@@H]1CN(C)C(=O)C1CCCCC1
  -2 | -1
Cc1cc(C(=O)Nc2cccc3c2O[C@H](CN(C)C(=O)Nc2ccc(C(F)(F)F)cc2)[C@@H](C)CN([C@H](C)CO)C3=O)n(C)n1
  -6 | -11
COc1cccc(NC(=O)N2[C@@H](CO)[C@@H](c3ccccc3)[C@@H]2CNCC(C)C)c1
  -14 | 9
CN(C)C(=O)[C@H]1[C@H](CO)[C@H]2Cn3c(ccc(C4=CCCCC4)c3=O)[C@@H]1N2Cc1ccncc1
  6 | -1
CO[C@H]1CN(C)C(=O)c2ccc(NC(=O)Nc3ccccc3)cc2OC[C@H](C)N(C(=O)Nc2c(C)noc2C)C[C@H]1C
  -3 | -14
O=C(Nc1ccccc1F)N1CC2(C1)[C@H](c1ccccc1)[C@H](CO)N2C(=O)CC1CC1
  2 | 8
O=C(C1=C[C@@H](C2CCCCC2)C[C@@H](OCCCCO)O1)N1CCOCC1
  6 | -3
C[C@H](CO)N1C[C@H](C)[C@@H](CN(C)C)Oc2cc(C#CC3CC3)ccc2S1(=O)=O
  -18 | -25
COC(=O)C[C@@H]1C[C@H]2c3cc(NS(C)(=O)=O)ccc3O[C@H]2[C@@H](CO)O1
  -8 | -5
Cc1ccc(S(=O)(=O)Nc2ccc3c(c2)C(=O)N(C)[C@@H]2CC[C@@H](CC(=O)O)O[C@H]2CO3)cc1
  7 | 7
Cc1ccc(S(=O)(=O)NCC[C@H]2CC[C@H](NC(=O)c3ccccn3)[C@@H](CO)O2)cc1
  -3 | -2
CC(C)C#Cc1cnc2c(c1)C(=O)N([C@H](C)CO)C[C@H](C)[C@@H](CN(C)Cc1ccccc1)O2
  -22 | -18
C[C@H]1CN([C@@H](C)CO)C(=O)c2cc(NC(=O)c3ccncc3)ccc2O[C@H]1CN(C)Cc1ccccc1
  16 | 9
Cc1ccc(-c2ccc3c(c2)O[C@H](CN(C)C(=O)CC2CC2)[C@@H](C)CN([C@H](C)CO)S3(=O)=O)cc1
  -20 | -14
CCCN1[C@H](C(=O)N[C@@H](C)c2ccccc2)[C@@H](CO)[C@@H]2Cn3c(cccc3=O)[C@@H]21
  14 | 15
Cc1ccc(-c2ccc([C@H]3[C@@H](CO)N4C(=O)CN(C(=O)c5cccnc5)C[C@H]34)cc2)cc1
  19 | -20
CCC(=O)N(C)C[C@H]1Oc2cc(-c3ccccc3)ccc2S(=O)(=O)N([C@H](C)CO)C[C@@H]1C
  -10 | -3
CCCN1C[C@H](C)[C@@H](OC)CN(C)C(=O)c2cc(NC(=O)c3ccno3)ccc2OC[C@@H]1C
  -3 | 0
CN(C)C(=O)C[C@H]1CC[C@@H](NC(=O)C2CCC2)[C@@H](CO)O1
  2 | -6
CCCNC(=O)N(C)C[C@H]1Oc2ncc(-c3ccncc3)cc2C(=O)N([C@H](C)CO)C[C@@H]1C
  8 | 11
CO[C@H]1CN(C)C(=O)c2cc(NS(=O)(=O)c3ccccc3F)ccc2OC[C@H](C)NC[C@@H]1C
  1 | 3
O=C(NC1CCCC1)N[C@@H]1C=C[C@@H](CC(=O)N2CCOCC2)O[C@@H]1CO
  -3 | 17
CO[C@@H]1CN(C)C(=O)c2ccc(NC(=O)C3CC3)cc2OC[C@H](C)N(C(=O)NC(C)C)C[C@@H]1C
  5 | 5
COCC(=O)N(C)C[C@H]1Oc2ncc(C#CC3(O)CCCC3)cc2C(=O)N([C@@H](C)CO)C[C@H]1C
  13 | 16
C[C@@H]1CN([C@H](C)CO)C(=O)c2cc(NC(=O)Nc3ccc(C(F)(F)F)cc3)ccc2O[C@@H]1CN(C)CC1CC1
  ? | nt
O=C(NCc1ccccc1)[C@H]1[C@H](CO)[C@H]2Cn3c(cccc3=O)[C@@H]1N2C(=O)c1cnccn1
  5 | -4
C[C@H](CO)N1C[C@H](C)[C@@H](CN(C)Cc2cccc(C(=O)O)c2)OCc2cnnn2CCCC1=O
  -1 | -2
CN1C(=O)c2cc(NC(=O)C3CCOCC3)ccc2OC[C@H]2O[C@H](CC(=O)NC3CCCC3)CC[C@@H]21
  8 | 9
C/C=C/c1ccc2c(c1)O[C@@H](CN(C)C(=O)Cc1ccncc1)[C@H](C)CN([C@H](C)CO)S2(=O)=O
  -9 | -6

These rows are one share of the data; count on the stated rates, not on these rows.
